Beta2AR agonist: agonists of human beta-2 adrenergic receptor inducing internalization; P07550; Am2.2-beta2AR cells, FAP receptor internalization, flow cytometry; reference of the scale not given here; response, % (test concentration not listed); actives 0.43% (n = 340,000); AID 504454;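 active = response above a set limit, near 3 SD of response in nonfluorescent compounds, cut at about 42% in these data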;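 note: stock transfer was 100 nL into about 11 µL; a reference agonist was the positive control; negative values mostly stem from fluorescent compounds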
ALR H2O2 inh: blocks human ALR sulfhydryl oxidase activity; AID 485317; purified ALR, DTT oxidation, H2O2 HRP-luminol luminescence; inhibition, % (no concentration beside the values); actives 3.8% (n = 290,000);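 active = mean and each replicate at 75% or more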;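 note: stock transfer was 7.5 nL into about 7.5 µL; 0% = neutral wells and 100% = wells with inactivated enzyme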
HNF4A DNA FP: change in binding of human HNF4 alpha to DNA. P41235. HNF4a-FITC DNA binding, fluorescence polarization, 1 h. activity change, % at 10 µM. actives 0.3% (n = 360,000). AID 1224865; in the data active = activity change above about 30%, passing the limit was not always enough;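 note: controls were the assay level and a saturating level of protein; the project sought stronger binding though the title names inhibitors; some compounds called inactive have numbers as strong as hits; positive values seem to mean higher polarization but the record does not say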
Target sequence (P41235 whole entry, looked up): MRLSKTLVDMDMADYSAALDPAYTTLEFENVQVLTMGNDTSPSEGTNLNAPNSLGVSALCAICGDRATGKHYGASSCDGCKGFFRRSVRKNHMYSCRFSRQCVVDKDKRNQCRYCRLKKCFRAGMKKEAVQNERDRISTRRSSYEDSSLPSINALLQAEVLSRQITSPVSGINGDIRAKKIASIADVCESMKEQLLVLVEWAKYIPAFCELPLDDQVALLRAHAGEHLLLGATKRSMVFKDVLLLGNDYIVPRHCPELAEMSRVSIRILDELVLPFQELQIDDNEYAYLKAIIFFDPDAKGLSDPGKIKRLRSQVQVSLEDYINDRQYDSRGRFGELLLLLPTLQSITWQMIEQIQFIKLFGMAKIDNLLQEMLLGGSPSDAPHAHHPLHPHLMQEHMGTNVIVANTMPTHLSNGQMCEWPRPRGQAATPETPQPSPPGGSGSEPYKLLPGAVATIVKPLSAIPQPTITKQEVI
UCH37 inh: human UCH37 deubiquitinating enzyme inhibition | actives 0.33% (n = 330,000) | Q9Y5K5 | purified proteasome/UCH37, Ub-AMC cleavage fluorescence | inhibition, % (concentration not given with the values);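 active = mean of two replicates above 20%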;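 note: 0% = compound-free wells with enzyme and 100% = wells lacking proteasome; stock transfer was 100 nL into about 20 µL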
Target sequence (Q9Y5K5 whole entry, looked up): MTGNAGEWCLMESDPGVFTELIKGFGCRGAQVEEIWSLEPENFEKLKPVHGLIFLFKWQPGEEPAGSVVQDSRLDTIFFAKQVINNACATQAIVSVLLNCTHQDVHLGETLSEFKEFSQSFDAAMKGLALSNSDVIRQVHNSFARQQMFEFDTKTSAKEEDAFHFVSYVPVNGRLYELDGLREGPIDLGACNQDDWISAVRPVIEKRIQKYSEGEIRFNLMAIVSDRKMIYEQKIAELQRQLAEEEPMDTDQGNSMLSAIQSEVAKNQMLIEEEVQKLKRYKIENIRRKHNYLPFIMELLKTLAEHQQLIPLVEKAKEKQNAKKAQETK
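Material: Human UCH37 enzyme supplied as purified proteasome complex | Schedule: 30 min compound-proteasome preincubation then 25 min substrate reaction, room temperature | Detection: AMC fluorescence from Ub-AMC cleavage, excitation 355 nm, emission 460 nm | Benchmarks: Wells without proteasome as full block, compound-free enzyme plus substrate as uninhibited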
FGF22 binding: FGF22 (human) thermal shift binding | recombinant FGF22 thermal shift, SYPRO orange fluorescence; percent of sucrose octasulfate shift, DMSO zero | calls only at 9.99 µM | actives 1.5% (n = 340,000);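 active = melting point raised past a set limit in the mean and every replicate; three in four hits are not shown here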
Target sequence (Q9HCT0 whole entry, looked up): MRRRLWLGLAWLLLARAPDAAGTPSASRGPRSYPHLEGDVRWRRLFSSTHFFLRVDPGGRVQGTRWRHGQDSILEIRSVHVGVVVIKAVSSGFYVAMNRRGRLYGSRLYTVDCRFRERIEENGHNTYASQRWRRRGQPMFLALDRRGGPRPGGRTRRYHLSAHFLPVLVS
E coli growth: blocks Escherichia coli growth | OD600, 23 h; stronger effect = lower value | AID 1053175 | actives 0.21% (n = 330,000) | OD600 absorbance (no concentration beside the values);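 active = OD600 absorbance below the run mean of sample wells minus 3.6 SD, in any replicate, cut at about 0.56 in these data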;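 note: stock transfer was 300 nL into about 60 µL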
rRNA inh HTS: inhibitors of bacterial rRNA selective over humanized ribosomes; actives 1.6% (n = 350,000); AID 720706; E. coli WT GFP vs humanized-ribosome RFP mutants, fluorescence, 24 h; stronger effect = lower value; DMSO median 0, no signal -100; GFP signal change (wild-type ribosome), % (concentration not given with the values);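 active = significant combined selectivity score with lowered wild-type GFP, culture density cut under 30%, mutant RFP and density less affected; inactive = any of these conditions unmet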; note: one replicate is shown; some compounds called inactive have numbers as strong as hits
rRNA inh HTS OD600: also measured in rRNA inh HTS; calls as there; OD600 change, %; measured here: OD600 growth;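 optical density of the mix in the first replicate; 0 = DMSO median and -100 = no signal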
rRNA inh HTS RFP: recorded beside rRNA inh HTS, whose call it bears; RFP signal change, %; measured here: RFP humanized mutant strains;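 first replicate; 0 = DMSO median and -100 = no signal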
Numbers without * were called inactive; i = inactive; x = not tested or not shown; & = joins results of further samples. A portion of the library. The share of hits here may be higher or lower than overall.

SMILES | Beta2AR agonist | ALR H2O2 inh | HNF4A DNA FP | UCH37 inh | FGF22 binding | E coli growth | rRNA inh HTS | rRNA inh HTS OD600 | rRNA inh HTS RFP
COc1ccc(C(CCNCc2ccc(F)cc2)c2ccc(F)cc2)cc1 (stereo unspecified) | 42 | -10 | -3.4 | 1.1 | i | 0.64 | -53 | -77 | -23
COC(=O)c1sc(NC(=O)/C=C/c2ccc(C)cc2)nc1C | 3 | 3 | 1.6 | x | x | x | x | x | x
Cn1c(SCC(=O)Nc2ccc(N3CCOCC3)cc2)nnc1-c1ccco1 | -14 | 9 | 5.2 | -0.3 | i | 0.65 | 5 | 3 | -2.5
c1ccc(C2NCCc3ccccc32)cc1 (stereo unspecified) | 4 | -1 | -3.9 | 1.4 | i | 0.67 | 15 | 4 | -2.6
O=C(c1ccc(Br)cc1)N(Cc1nc2ccccc2c(=O)[nH]1)C1CCCC1 | 1 | -3 | 2.4 | 3.0 | i | 0.66 | -47 | -77 | -12
O=C(Nc1ccc(Cl)cn1)c1ccccc1F | -8 | -22 | 0.1 | 2.8 | x | 0.67 | x | x | x
NC(=O)c1cccc(-c2csc(C(O)c3ccccc3)n2)c1 (stereo unspecified) | x | x | -0.9 | x | i | x | 6 | -3 | 0.3
CCN(CC)C(=O)Cn1c(=O)n(-c2ccccc2)c(=O)c2sccc21 | 0 | x | -2.3 | -1.3 | i | 0.7 | 1 | 3 | -1.6
CCC(=O)N1CCc2cc(S(=O)(=O)N3CCN(c4cc(Cl)ccc4C)CC3)ccc21 | 1 | 2 | 0.2 | 0.6 | i | 0.7 | 7 | 6 | -2.0
O=C(O)CCCCn1c(SCc2ccccc2Cl)nc2ccsc2c1=O | 16 | x | 0.3 | 2.9 | i | 0.7 | -41 | -51 | -13

A draw from above in order of length of the SMILES, ascending.
SMILES | Beta2AR agonist | ALR H2O2 inh | HNF4A DNA FP | UCH37 inh | FGF22 binding | E coli growth | rRNA inh HTS | rRNA inh HTS OD600 | rRNA inh HTS RFP
c1ccc(C2NCCc3ccccc32)cc1 (stereo unspecified) | 4 | -1 | -3.9 | 1.4 | i | 0.67 | 15 | 4 | -2.6
NC(=O)c1cccc(-c2csc(C(O)c3ccccc3)n2)c1 (stereo unspecified) | x | x | -0.9 | x | i | x | 6 | -3 | 0.3
COC(=O)c1sc(NC(=O)/C=C/c2ccc(C)cc2)nc1C | 3 | 3 | 1.6 | x | x | x | x | x | x
COc1ccc(C(CCNCc2ccc(F)cc2)c2ccc(F)cc2)cc1 (stereo unspecified) | 42 | -10 | -3.4 | 1.1 | i | 0.64 | -53 | -77 | -23
Cn1c(SCC(=O)Nc2ccc(N3CCOCC3)cc2)nnc1-c1ccco1 | -14 | 9 | 5.2 | -0.3 | i | 0.65 | 5 | 3 | -2.5
CCN(CC)C(=O)Cn1c(=O)n(-c2ccccc2)c(=O)c2sccc21 | 0 | x | -2.3 | -1.3 | i | 0.7 | 1 | 3 | -1.6

(more compounds)
SMILES | Beta2AR agonist | ALR H2O2 inh | HNF4A DNA FP | UCH37 inh | FGF22 binding | E coli growth | rRNA inh HTS | rRNA inh HTS OD600 | rRNA inh HTS RFP
CC(C)c1nc(NCCN2CCOCC2)c(C#N)c2c1COC(C)(C)C2 | 6 | -17 | -2.0 | -11 | x | 0.74 | x | x | x
CC(C(=O)O)N1c2cccc3cccc(c23)S1(=O)=O (stereo unspecified) | -7 | -48 | -1.6 | -140 | i | 0.69 | 6 | 10 | 1.5
O=C(COc1ccc2c(c1)oc(=O)c1ccccc12)NCCCN1CCOCC1 | -14 | 15 | -1.2 | -184 | i | 0.67 | -1 | -6 | 0.1
CCNc1nc(NOC)nc(OCC#N)n1 | -2 | -2 | 1.7 | 1.9 | i | 0.71 | 4 | 3 | 0.0
NC(=O)c1ccsc1NC(=O)c1cccs1 | -8 | x | 7.8 | 4.2 | i | 0.7 | -7 | 0 | -1.5
CN(CC(=O)Nc1ccc(Cl)c(C(F)(F)F)c1)C(=O)C1(c2ccccc2)CC1 | 0 | x | -0.7 | 6.0 | x | 0.68 | -27 | -66 | 7.5
CSc1ccc(/C=C/C(=O)OCC(=O)NCC2CCCO2)cc1 (stereo unspecified) | -2 | x | 3.7 | -283 | i | 0.66 | -1 | 3 | -1.6
CCOC(=O)C1C(=O)OC2(CCCC2)C1C(=O)OCC (stereo unspecified) | 6 | -1 | 6.7 | 2.7 | x | 0.67 | x | x | x
CC(C)C(C)(C#N)NC(=O)COC(=O)C1CCN(S(=O)(=O)c2ccc3c(c2)OCCO3)CC1 (stereo unspecified) | 15 | x | 1.2 | -0.6 | i | 0.68 | 1 | -18 | -0.9
Cc1[nH]c2ccc(F)cc2c1CCN(Cc1cccnc1)C(=S)Nc1ccccc1 | 3 | 1 | 4.2 | 0.9 | i | 0.68 | -47 | -69 | -8.9
CCOC(=O)NC(=O)CSc1nc2ccc(OCC)cc2[nH]1 | 1 | -8 | 2.2 | 0.3 | x | 0.72 | x | x | x
COc1cccc(CC(NC(C)=O)C(=O)NC2CCN(S(=O)(=O)c3cccc4ccccc34)CC2)c1 (stereo unspecified) | -3 | -6 | -0.1 | 1.4 | x | 0.66 | x | x | x
CSc1ccc(CN2CCC(C)(Oc3ccc(F)cc3)C2)cc1 (stereo unspecified) | x | x | -2.3 | x | i | x | 0 | -6 | 3.6
Cc1ccc(NC(=S)NC(=O)c2ccc(-c3ccc(Cl)cc3)o2)c(O)c1 | -5 | x | 1.3 | 8.2 | i | 0.71 | 1 | 3 | 10
O=C(O)CC/C(=N\NC(=O)c1ccc(F)cc1)c1ccc(Br)cc1 | 13 | -2 | 2.5 | x | i | x | 0 | 2 | -2.4
CC1=NN(C(=O)c2ccccc2Cl)C(O)(c2ccccc2)C1 (stereo unspecified) | -5 | 16 | 1.4 | 0.2 | i | 0.66 | 7 | 8 | 0.6
O=C(NCc1ccco1)C1CCN(c2ccc(S(=O)(=O)N3CCOCC3)cc2[N+](=O)[O-])CC1 | 2 | -7 | -1.0 | 2.4 | i | 0.65 | 1 | 1 | -2.8
CN(C)/C=C/C(=O)c1c(F)cccc1F | -4 | x | -0.6 | 7.6 | i | 0.66 | 10 | -3 | 2.5
CCN(CC)C(=O)C1=C(C)N(Cc2ccc(F)cc2)C(=O)C(CC(=O)NCc2cccc3ccccc23)C1 (stereo unspecified) | x | x | -1.1 | x | i | x | 0 | -5 | 2.9
CCOc1ccc(NC(=O)CN(C)C(=O)c2cccnc2Sc2ccccc2Cl)cc1OCC | 2 | -35 | -1.8 | 1.2 | i | 0.7 | -4 | -2 | -1.1
O=C(NC(=S)N1CCOCC1)c1ccccc1Cl | -2 | -14 | -2.0 | 1.1 | i | 0.72 | 10 | 8 | 0.5
CCOC(=O)C1CCCN(C(=O)c2ccc3nc(-c4ccccc4)c(-c4ccccc4)nc3c2)C1 (stereo unspecified) | 7 | -10 | -2.4 | -170 | i | 0.69 | -20 | -16 | -0.9
Cn1cccc1C(=O)OCC(=O)NCCc1ccc(S(N)(=O)=O)cc1 | -2 | 0 | 2.7 | 2.8 | i | 0.71 | 4 | 10 | -1.3
Cc1cc(C)nc(Sc2ccc(C=O)cc2[N+](=O)[O-])n1 | -2 | -3 | -4.5 | 8.2 | i | 0.73 | 18 | 14 | -0.8
O=C(O)C1CCCCC1C(=O)N1CC=C(c2ccccc2)CC1 (stereo unspecified) | -7 | 0 | -0.7 | -54 | x | x | x | x | x
S=C(Nc1ccc(Cl)c(Cl)c1)NC1CCCCC1 | 5 | -8 | 1.6 | 4.1 | i | 0.63 | -58 | -77 | -34
CCc1nc2c(OCCn3cccc3)cccn2c1N(C)C(=O)CC(C)C | x | x | -2.3 | x | i | x | 12 | 9 | 5.9
Cn1cc(S(=O)(=O)N2CCN(c3cccc(Cl)c3)CC2)c(=O)n(C)c1=O | 5 | 0 | -1.2 | -0.6 | i | 0.68 | 4 | -4 | -3.6
O=C(NCCN1CCOCC1)c1cc2n(n1)C(C(F)(F)F)CC(c1ccc(F)cc1)N2 (stereo unspecified) | -1 | -24 | -4.5 | 1.0 | x | 0.72 | x | x | x
C[C@H]1CN([C@@H](C)CO)C(=O)CCCn2nncc2CO[C@@H]1CN(C)C(=O)NC1CCCCC1 | x | x | 0.9 | x | i | x | 2&-4 | 9&1 | 6.9&-0.7
O=C(c1ccc(F)cc1)N1CCOC(c2nc(-c3ccc(F)cc3)no2)C1 (stereo unspecified) | -9 | x | 2.8 | 1.1 | i | 0.63 | -25* | -18* | -1.4*
CCOC(=O)C1CCCN(C(=O)c2cc3c(=O)n4ccccc4nc3s2)C1 (stereo unspecified) | 5 | -5 | -3.1 | i | i | 0.68 | -1 | 3 | 2.1
Cc1cccc(NC(=O)c2c(O)c3ccccc3n(C)c2=O)c1 | -5 | 1 | 1.7 | -131 | i | 0.69 | 10 | 8 | -2.7
Cc1ccc(CSc2nnc(-c3cccnc3)n2N)cc1 | -5 | -3 | 0.5 | 3.2 | x | 0.69 | x | x | x
O=C(CCNC(=O)Cn1cnc2ccccc2c1=O)NCC1COc2ccccc2O1 (stereo unspecified) | -6 | -15 | -0.7 | 1.1 | x | 0.72 | x | x | x
CCCN=C1N/C(=C\c2ccco2)C(=O)N1c1ccccc1 | -7 | 26 | 4.2 | -0.1 | x | x | x | x | x
CC(=O)n1cc(Nc2ccccc2C(=O)O)c2ccccc21 | 1 | x | 1.1 | -42 | x | 0.79 | x | x | x
OC(c1cc(-c2cccc(Cl)c2)nc2ccccc12)C1CCCCN1 (stereo unspecified) | 21 | x | -2.5 | 3.2 | i | 0.6 | -49 | -79 | -16
COCCCNC(=O)c1cc(S(=O)(=O)N2CCOCC2)ccc1SCc1cccc(OC)c1OC | -5 | 15 | -3.5 | 3.7 | i | 0.69 | 0 | 1 | 1.2
Nc1n[nH]c(C2CC2)c1N=Nc1ccc(Cl)c(Cl)c1 | 0 | -6 | 3.4 | 4.0 | i | 0.62 | -52* | -37* | -16*

Ordered by the number under Beta2AR agonist (descending): 3 of the compounds above
compound,Beta2AR agonist
O=C(O)CC/C(=N\NC(=O)c1ccc(F)cc1)c1ccc(Br)cc1,13
CC(C)c1nc(NCCN2CCOCC2)c(C#N)c2c1COC(C)(C)C2,6
Cn1cccc1C(=O)OCC(=O)NCCc1ccc(S(N)(=O)=O)cc1,-2

Next entries follow:
SMILES | Beta2AR agonist | ALR H2O2 inh | HNF4A DNA FP | UCH37 inh | FGF22 binding | E coli growth | rRNA inh HTS | rRNA inh HTS OD600 | rRNA inh HTS RFP
COc1ccc(-n2ncc(C(C)NS(=O)(=O)c3cc(C)sc3C)c2C)cc1 (stereo unspecified) | x | x | -1.3 | x | i | x | -9 | -17 | 5.6
O=C(COC(=O)C12CC3CC(CC(O)(C3)C1)C2)Nc1ccc(OC(F)F)cc1 | 3 | x | 28 | -0.9 | i | 0.68 | 1 | -3 | -0.2
Cc1ccc(C(=O)COC(=O)CNC(=O)COc2ccccc2C)cc1C | 11 | -47 | -0.4 | -0.8 | x | 0.65 | x | x | x
CN1C(=O)C(CC(=O)NCCc2ccccc2)N(NC(=O)c2cccc(F)c2)C1=S (stereo unspecified) | -11 | 4 | 1.6 | 6.1 | i | 0.65 | -16* | 2.1* | -0.9*
CN1CCN(NC(=O)Nc2ccc(F)cc2)CC1 | -3 | -2 | -3.4 | 4.0 | i | 0.7 | 8 | 13 | -5.1
CCN1CCN(C(=S)c2ccc(-c3ccccc3)cc2)CC1 | 6 | -8 | -1.2 | 1.3 | i | 0.71 | 9 | 8 | -0.4
